WNV protease inh: blocks West Nile virus NS2B-NS3 protease activity | 65,000 compounds, 0.18% hits | WNV NS2B-NS3 protease, fluorogenic substrate Ex360/Em465; active compounds read low | P06935 | z-score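 (tested at a level between 10 and 100 µM)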 | AID 577;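 active = z-score at -3 or under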;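 note: score is relative to mean and spread of the compound wells of a plate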
Target sequence (P06935 1371-1501 limits assumed): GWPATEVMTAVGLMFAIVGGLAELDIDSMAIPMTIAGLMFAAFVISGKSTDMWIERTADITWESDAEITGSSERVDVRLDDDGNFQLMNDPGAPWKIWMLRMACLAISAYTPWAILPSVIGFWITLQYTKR
Target sequence (P06935 1502-1679 limits assumed): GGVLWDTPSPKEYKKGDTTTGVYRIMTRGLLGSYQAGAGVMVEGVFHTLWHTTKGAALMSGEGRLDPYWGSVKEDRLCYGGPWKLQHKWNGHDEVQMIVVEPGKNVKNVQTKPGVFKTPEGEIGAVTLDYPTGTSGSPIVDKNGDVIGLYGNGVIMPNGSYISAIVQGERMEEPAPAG
MT1-MMP promoter: MT1-MMP gene expression reporter suppression – cell-based, luciferase reporter, luminescence (AID 618); 87,000 compounds, 0.62% hits; calls from a first round at 10 µM; hits with a dose series show EC50 in µM; MT1-MMP promoter luciferase reporter cells, luminescence;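 active = over half of the reporter light lost at 10 µM or EC50 under 50 µM; inactive = the rest and hits that failed the dose series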;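 note: actives suppress MT1-MMP promoter-driven transcription so potencies describe inhibitors; HT1080 fibrosarcoma cells; overnight exposure; toxic or luciferase-blocking compounds were not removed from the actives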
Hsc70 ATP site: Hsc70 inhibitors, probe displacement, primary screen, biochemical, fluorescence polarization (AID 568); Hsc70 fluorescence polarization, probe displacement; higher % means a stronger effect; strong numbers were not always called active; displacement, % at 20 µM; hits with a dose series show IC50 in µM; 83,000 tested, under 10 active;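 active = displacement above 50% without optical interference and an IC50 on retest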;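 note: ATPase domain with a fluorescein-tagged ATP probe; 0% = vehicle and 100% = excess ADP; read after one hour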
Active calls of the source: *; i = inactive; / = no result given; + = active, no number.

SMILES	WNV protease inh	MT1-MMP promoter	Hsc70 ATP site
CCOc1ccccc1NC(=O)C1CCN(S(=O)(=O)c2ccc(OC)c(OC)c2)CC1	0.33	i	4.3%
Cc1ccc(S(=O)(=O)NCCN2CCOCC2)cc1	/	i	-2.3%
O=C(c1cc2ccccc2c(=O)o1)N1CCc2ccccc2C1	0.78	i	0.6%
CCSC1(SCC)N=C(N)C2(C#N)C(c3ccc(OC)c(OC)c3OC)C12C#N (stereo not given)	0.54	i	6.0%
COc1cc(C)nc(Oc2ccc(/C=N/O)cc2)n1	-0.52	i	3.3%
O=C(O)c1ccc2c(c1)C(=O)N(c1ccc(Cl)cn1)C2=O	0.18	i	4.1%
CN(C)C=NCCn1c(N2CCOCC2)nc2c1c(=O)n(C)c(=O)n2C	1.11	i	-1.0%
CCc1nc(NCc2cccnc2)c2oc3ccccc3c2n1	/	i	1.7%
CC1(C)CC(=O)C=C(Nc2ccc(F)cc2)C1	-0.64	i	-8.0%
COc1ccc(C2NC(C(=O)O)CS2)cc1COCC(F)(F)F (stereo not given)	-0.79	i	-13.3%
O=C(CSc1nc2c(c(=O)n1-c1ccc(Cl)cc1)SCC2)N1CCOCC1	0.45	i	-1.3%
O=C1C2CCC(C(O)C2)N1Cc1ccccc1 (stereo not given)	-1.61	i	2.1%
c1ccc(-c2cnc(-c3cccnc3)o2)cc1	-0.85	i	-3.6%
N#Cc1cc2c(=O)n3ccccc3nc2n(CCCn2ccnc2)c1=N	-0.73	i	-4.6%
COc1ccc(NC(=O)c2ccco2)cc1NC(=O)c1cccnc1	-1.15	i	-2.3%
CC(C(=O)N(C1CC1)C1(C(=O)Nc2ccccc2)CCCC1)N1C(=O)c2ccccc2C1=O (stereo not given)	-0.65	i	2.5%
COc1ccc(Nc2oc(COc3cccc(C)c3)nc2C#N)cc1	0.47	i	-6.6%
O=C(Nc1ccccc1)c1ccc(N2CCN(c3ccccn3)CC2)c(S(=O)(=O)N2CCOCC2)c1	/	i	1.1%
COC(=O)CN(c1ccccc1OC)S(=O)(=O)c1ccccc1	-0.98	i	3.0%
CC(C)CNC(=O)c1cccc(NC(=O)C2CCCO2)c1 (stereo not given)	-1.12	i	-0.6%
COc1ccc(Nc2cc(C(=O)NCCCN3CCN(C)CC3)c3ccccc3n2)cc1OC	-0.82	i	-0.9%
Cc1cccc(NC(=O)CCC(=O)NCCO)c1	/	i	6.9%
COc1ccc(C(=O)NC2(C(F)(F)F)C(=O)Nc3c2c(=O)[nH]c(=O)n3CCc2ccc(OC)c(OC)c2)cc1 (stereo not given)	/	i	1.6%
COCc1c(C(=O)OCC(=O)N2c3ccccc3CC2C)oc2ccccc12 (stereo not given)	0.47	i	2.2%
CN(C)CCCOC(=O)c1ccccc1	/	i	-1.5%
CCCCOC(=O)CSc1nc2c(cc1C#N)C(=O)CC(C)(C)C2	0.42	i	-2.2%
Cc1ccccc1NC(=O)c1nc[nH]c1C(=O)NCc1ccccc1	0.8	i	-53.7%
C/C(Cl)=C/CSc1nnc2n(N)c(=O)c3ccccc3n12	/	i	5.5%
CS(=O)(=O)N1CCc2cc(S(=O)(=O)N3CCN(Cc4ccc5c(c4)OCO5)CC3)ccc21	-0.71	i	1.2%
Cc1ccc(C(=O)Nc2ncc3c(n2)CC(c2ccco2)CC3=O)cc1 (stereo not given)	0.24	i	4.5%
CCOC(=O)c1ccccc1NC(=O)CSc1nccn1C	-0.17	i	-3.3%
Cc1c(OCC(F)(F)F)ccnc1CSc1nc2ccccc2[nH]1	/	i	1.1%
COc1ccccc1N(CC(=O)Nc1ccccc1C(=O)NC(C)C)S(C)(=O)=O	1.2	i	1.6%
COc1cccc(NC(=O)C(=O)N2CCOCC2)c1	/	i	2.7%
O=C(CSc1ncnc2ccccc12)NCc1ccco1	0.55	i	-3.6%
Cc1cc(Nc2ccccc2F)n2ncnc2n1	-0.07	i	1.1%
O=C(Nc1ccc(Cl)cc1-c1nc2ccccc2s1)c1ccco1	/	i	-1.4%
Cc1onc(-c2c(Cl)cccc2Cl)c1C(=O)N1CCc2ccccc21	0.06	i	-0.8%
COc1ccc(-c2oc(/N=C/N3CCCC3)c(C#N)c2-c2ccc(OC)cc2)cc1	/	i	0.7%
Cc1ccc(N2CCN(S(=O)(=O)c3ccc(F)c(C)c3)CC2)c(C)c1	-0.61	i	-0.2%
CC1(C)Cc2nc(NCCCO)c(C#N)cc2CO1	1.51	i	-4.3%
CSc1snc(SCC(N)=O)c1C#N	0.78	i	-0.7%
Cc1ccc(-n2c(C)cc(C(=O)COC(=O)c3c(C)noc3C)c2C)cc1	-0.8	i	-5.4%
CSc1c[n+]2c(n1C)CCC2	0.95	i	-1.2%
CCCCOc1ccc(C(=O)OC2CC(C)N(C)CC2C)cc1 (stereo not given)	-0.12	i	-10.7%
O=C(O)CCc1ccc(-c2cccs2)n1CC1CCCO1 (stereo not given)	-0.08	i	11.5%
COc1cccc2cc(-c3cn4cccc(C)c4n3)c(=O)oc12	0.31	i	-4.2%
CCc1ccccc1N1CCN(S(=O)(=O)c2ccc(F)c(C)c2)CC1	0.18	i	10.9%
Cc1cc(/C(=N/O)C(C)(C)NO)ccc1Cl	0.22	i	1.3%
Cc1nc(-c2ccc(NC(=O)c3cccs3)cc2)cs1	0.18	+	-2.1%

Additional records follow:
SMILES	WNV protease inh	MT1-MMP promoter	Hsc70 ATP site
O=C(CSc1nc2c(c(=O)[nH]1)CCC2)Nc1cccc(Cl)c1	0.57	i	0.2%
O=C(CN(c1ccc(F)cc1)S(=O)(=O)c1ccc2c(c1)OCCO2)N1CCOCC1	-1	i	0.9%
CCOc1cccc(N2C(=O)CC(N3CCC(C(N)=O)(N4CCCCC4)CC3)C2=O)c1 (stereo not given)	1.24	i	-0.3%
CCCOc1ccc(CC(=O)NNC(=S)Nc2ccccc2)cc1Br	/	i	0.3%
COc1cc(S(=O)(=O)N(Cc2ccccn2)Cc2ccccc2Cl)ccc1-n1cnnn1	/	i	-4.4%
CC(C)(C)NC(=O)c1ccccc1-c1nc(-c2ccccc2Cl)no1	-0.62	i	3.8%
COC(=O)Cn1c(=O)c2c(nc(Br)n2Cc2ccccc2Cl)n(C)c1=O	/	i	-1.3%
CCOC(=O)c1sc2ncn(CC(=O)N(CC)CC)c(=O)c2c1C	-0.75	i	-0.1%
C/C(CCc1oc2c(Br)cc(Br)cc2c1-c1ccc(C)o1)=N\O	/	i	0.3%
O=C(O)C1CCCCC1C(=O)NCCCn1ccnc1 (stereo not given)	/	i	4.2%
CCOC(=O)C1CCN(c2c(N3CCCCCC3)c(=O)c2=O)CC1	-0.47	i	-1.8%
COc1cc(/C=N/Nc2nc3ccccc3o2)cc(OC)c1O	/	i	-6.7%
CC(C)NC(=O)Cn1nnc(-c2cccc(NC(=O)c3ccccc3F)c2)n1	0.61	i	4.1%
Cc1cc(NC(=O)CCC(=O)N(CC(=O)NC2CCCC2)c2cccc(C)c2C)no1	/	i	-8.2%
O=C(Nc1ccc(F)cc1)c1cccc2c1C(=O)N(Cc1ccccn1)C2	-0.1	i	-1.0%
O=S(=O)(N1CCCCC1)N1CCCN(S(=O)(=O)N2CCCCC2)CC1	-0.34	i	-1.3%
COc1ccc(Cl)cc1C(=O)Nc1nnn(C)n1	1.63	i	-4.8%
Cc1cc(C(=O)Nc2c(C)nn(Cc3ccccc3Cl)c2C)no1	0.07	i	2.6%
CCCN1C2CCCC1CC(NC(=O)c1ccc(F)cc1)C2 (stereo not given)	-0.51	i	0.9%
CC(NC(=O)c1ccc(Cl)cc1)C(=O)N1CCCCC1 (stereo not given)	-0.48	i	3.2%
Cc1cc(Br)ccc1NC(=O)C1CCCO1 (stereo not given)	0.5	i	-1.3%
CC(=O)Nc1ccc(NS(C)(=O)=O)cc1	/	i	1.5%
COc1ccc(S(=O)(=O)N(CCCN2CCOCC2)Cc2cccc3ccccc23)cc1	/	i	-3.1%
O=C(c1cc(-c2ccccc2O)on1)N1CCc2ccccc2C1	-1.3	i	0.7%
CCN(C(=O)c1c(-c2ccccc2)noc1C)c1ccccc1	-0.01	i	-3.8%
CC1=NN(/C(=N\c2nnc(C)s2)Nc2ccccc2)[C@H](c2ccc(C)cc2)S1	/	i	-2.2%
CCc1nnc(NC(=O)C=C(C)C)s1	/	i	4.4%
CCOC(=O)N1CCN(C(=O)CSc2cc(C)nc3c(-c4ccccc4OC)c(C)nn23)CC1	0.57	i	-4.2%
COC(=O)c1ccc(C2CC(=O)Nc3cc(OC)c(OC)c(OC)c32)cc1 (stereo not given)	-0.06	i	5.7%
O=C(NCc1ccc(F)cc1)c1cccc(S(=O)(=O)N2CCCC2)c1	0.42	i	2.9%
N=C1C(c2ccccc2)=C(O)CN1c1ccccc1N1CCOCC1	0.28	i	-6.4%
COc1ccc(C(=O)N2CCCC2)cc1	1.43	i	-0.3%
Cn1c(N2CCCCC2)nc2c1c(=O)n(Cc1cccc(Br)c1)c(=O)n2C	2.13	i	-4.0%
CCCS(=O)(=O)c1c(S(=O)(=O)CCC)c2c(N)cccn2c1C(=O)c1ccc(Br)cc1	/	i	-0.8%
Cc1ccc(OC(=O)c2ccccc2C(=O)OCC(F)(F)C(F)F)cc1	/	i	0.1%
O=C(Nc1ccccc1Cl)NC1(C(=O)N2CCCC2)CCCCC1	/	i	-3.5%
CC(=O)Nc1cccc(Oc2cc(C#N)c(C#N)cc2N2CCCCCC2)c1	-0.11	i	8.3%
COc1ccc(S(=O)(=O)Nc2nc3n(n2)C(c2ccc(Cl)cc2)CC(=O)N3)cc1 (stereo not given)	/	i	1.7%
COc1ccc2[nH]c(=O)c(CN(C(=O)COc3ccccc3)C(C)C)cc2c1	0.4	i	-6.4%
CCCC(=O)Nc1ccccc1N1CCN(C(=O)c2ccccc2)CC1	-0.47	i	0.8%
CCCCNC(=O)CCc1nc2cccnc2n1Cc1ccc(OC)cc1	/	i	-2.8%
Cc1nc(NCC2CCCO2)c2nnn(Cc3ccccc3)c2n1 (stereo not given)	-0.47	i	-3.2%
CN(C(=O)c1ccccn1)c1nnc(-c2ccncc2)s1	-0.76	i	1.2%
Cc1ccnc(NS(=O)(=O)c2ccc(NC(=O)Cc3cccs3)cc2)n1	-2.34	i	-10.0%
COc1ccc(C2NC(=S)N(c3ccccc3)C(C)=C2C(=O)Nc2ccccc2)cc1 (stereo not given)	/	i	0.6%
C(#Cc1ccccc1)CN1CCN(c2ccccn2)CC1	0.86	i	3.0%
CN(C)c1nc(SCCOC(=O)Nc2ccccc2)nc(N(C)C)n1	1.36	i	2.3%
O=C(NCc1cccs1)c1csc2c1CCCCC2	1.05	i	6.0%
O=C(c1ccc(CN2CCOCC2)cc1)N1CCC(Cc2ccccc2)CC1	-0.49	i	1.4%
CCCn1c(SCC(=O)Nc2nnc(C)s2)nnc1-c1ccoc1C	1.36	i	-4.1%

New compounds follow
SMILES	WNV protease inh	MT1-MMP promoter	Hsc70 ATP site
O=C1CNC(=O)N1Cc1ccc(Br)cc1	-0.23	i	-0.9%
CCOC(=O)C1=C(Cc2ccc(C)cc2)C(=O)c2ccccc2C1=O	/	i	0.6%
CCCC(=O)NCCc1nc2ccccc2n1CCC	-0.65	i	-0.5%
S=c1nc(C2CC2)[nH]c2ccccc12	0.02	i	1.3%
CC(C)NC(=O)NC(=O)COc1cccc2c1OC(C)(C)C2	-0.47	i	1.0%
Cc1cc(NC(=O)CCCC(=O)O)nc(C)n1	-0.84	i	-3.5%
O=C(c1ccccc1)N1CCN(C(=O)c2ccccc2)CC1	/	i	5.2%
O=C(CCCn1c(SCC(=O)NCC2CCCO2)nc2ccccc2c1=O)NCc1ccccc1 (stereo not given)	/	i	5.9%
c1cn(CCCNC2=NCCCCC2)cn1	-0.94	i	-0.8%
NC(=O)CSc1oc(-c2cccs2)nc1S(=O)(=O)c1ccccc1	0.54	i	-4.3%
Cc1ccc(S(=O)(=O)N2CCC(n3nnc4cc(C)ccc43)CC2)cc1	/	i	4.5%
CCOC(=O)C(CO)(NC(C)=O)C(=O)OCC	-1.39	i	-4.5%
Cc1ccc2[nH]c(=O)c(CN(Cc3nnnn3Cc3ccccc3)C3CCCC3)cc2c1	0.58	i	-3.2%
Cc1c(C(=O)OC(C)CCN(C)C)oc2ccccc12 (stereo not given)	0.3	i	-1.7%

Compounds from the list above that contain a COOH group (5):
SMILES	WNV protease inh	MT1-MMP promoter	Hsc70 ATP site
O=C(O)c1ccc2c(c1)C(=O)N(c1ccc(Cl)cn1)C2=O	0.18	i	4.1%
COc1ccc(C2NC(C(=O)O)CS2)cc1COCC(F)(F)F (stereo not given)	-0.79	i	-13.3%
O=C(O)CCc1ccc(-c2cccs2)n1CC1CCCO1 (stereo not given)	-0.08	i	11.5%
O=C(O)C1CCCCC1C(=O)NCCCn1ccnc1 (stereo not given)	/	i	4.2%
Cc1cc(NC(=O)CCCC(=O)O)nc(C)n1	-0.84	i	-3.5%

Screening data deposited in PubChem BioAssay by several laboratories.

The list is partial. The share of hits here may be higher or lower than overall.
